Screening data as filed in PubChem.
MgrA-DNA mod = modulators of Staphylococcus aureus MgrA DNA binding | inhibition, %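 (about 10 µg/mL by stock and volumes)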 | 84,000 compounds, 0.13% hits | fluorescence polarization;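 active = above 50% in either of two replicates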;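 also: 0% = protein plus DNA without compound and 100% = DNA alone without protein; higher means less MgrA bound to DNA so lower polarization; one replicate is shown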
S aureus helic = blocks Staphylococcus aureus DNA helicase. purified S. aureus helicase, fluorescence unwinding assay; about half of the hits fall short of the stated cut. inhibition, %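 (tested at about 80 µM)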. 120,000 compounds, 0.05% hits;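 active = both duplicates at 50% or more, or one of them with a favoured structure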;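 also: 0% = mean of negative control wells and 100% = mean of positive control wells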
Numbers without * were called inactive; · = no result given.

SMILES | MgrA-DNA mod | S aureus helic
CCC(=O)N=c1sc2cc(S(N)(=O)=O)ccc2n1CCOC | · | -17
O=c1c(-c2ccc(F)cc2)coc2c3c(ccc12)OCCO3 | · | 3
O=C(NC1CCCC1)c1cc2c(=O)n3ccccc3nc2nc1NCC1CCCO1 (configuration not stated) | -2.8 | 4
COc1ccc(S(=O)(=O)N(C(=O)C2CCCCC2)c2ccc3oc(=O)sc3c2)cc1OC | 0.5 | 10
Cc1ccc(N(C(=O)c2cc3ccccc3oc2=O)C2C=CS(=O)(=O)C2)cc1 (configuration not stated) | 0.8 | 11
O=C(Nc1cc(Cl)cc(Cl)c1)N1CCC(n2cccc2)CC1 | -2.8 | ·
CCOc1ncccc1C(=O)Nc1ccnn1Cc1ccccn1 | · | 8
COc1ccc2c(c1)-c1c(ssc1=S)C(C)(C)N2C(=O)CSc1nc2ccccc2o1 | · | -27
O=C(NC(=O)N1CCN(c2ccc(C(F)(F)F)cc2[N+](=O)[O-])CC1)c1ccccc1Cl | 4.4 | ·
COc1ccc(CC(=O)N2CCCC2c2nnc(SCc3ccccc3)n2C)cc1 (configuration not stated) | -1.9 | 14
N#Cc1c(NC(=O)/C=C/c2cccs2)sc2c1CCCC2 | · | -12
CCn1c(N2CCN(CC(=O)c3ccc(OC)cc3)CC2)nc2ccccc21 | -2.0 | 9
COc1ccc(C(=O)C(CN2CCCCC2)c2ccccc2)cc1 (configuration not stated) | · | 33
CN(C)c1ccc(NC(=O)CSc2nc(N)cc(=O)[nH]2)cc1 | 1.0 | -2
CCC(C(=O)NCc1cc(Br)ccc1OC)n1nc(C)n2c(cc3occc32)c1=O (configuration not stated) | 0.5 | -8
Clc1ccc(N=C2SCC3CCCCN23)cc1 (configuration not stated) | · | 8
COCCn1c(SCC(=O)N2CCCc3ccccc32)nc2c(c1=O)SC(C)C2 (configuration not stated) | · | 7
O=S(=O)(Cc1ccccc1)N1CCC(c2nc(-c3cccs3)no2)CC1 | -3.7 | 20
Cc1ccc(CN(C)C(=S)NCc2ccccc2)o1 | · | 15
NNC(=S)NC1CCCCCCCCCCC1 | -0.8 | ·
Cc1cc(=O)[nH]c(SCC(=O)Nc2cccc3ccccc23)c1C#N | -1.1 | 6
N#C/C(=N\Nc1ccc(S(=O)(=O)N2CCCCC2)cc1)C(N)=S | · | -5
Nc1ccc(CN2CCOCC2)cc1 | · | 11
COc1ccc(NC(=S)NNC(=O)c2cc(OC)c(OC)c(OC)c2)cc1 | -1.3 | ·
CC(C)Cc1cc2c(c(N)n1)c(=O)oc1ccccc12 | · | -13
CCOC(=O)C1(C(=O)O)NC(=O)CC1c1ccccc1 (configuration not stated) | · | 4
CN(CCC#N)c1ccc(C=C2C(=O)NC(=O)NC2=O)cc1 | 13 | ·
N/C(=N\OC(=O)N1CCOCC1)c1ccccc1 | · | -21
Nc1ccc(C(=O)N2CCOCC2)cc1 | -0.7 | 3
O=C(O)CNc1ccc(-n2ccnc2)nn1 | -0.6 | -5
CC(C(=O)Nc1ccc2c(c1)OCO2)N(C)Cc1c(F)cccc1Cl (configuration not stated) | · | -6
Cc1nnc2ccc(NN)nn12 | · | 11
CCCn1c(CCCNC(=O)CC)nc2ccccc21 | · | 12
O=C(COC(=O)c1cccc(NC(=O)c2ccc(Cl)cc2)c1)c1ccccc1 | 2.1 | -23
Cc1cc(C)n(CCCC(=O)NCCn2nccc2C)n1 | 0.0 | -3
O=C1C2CNC3(C(=O)Nc4ccccc43)C2C(=O)N1Cc1ccccc1 (configuration not stated) | 5.6 | 14
CCCN1CCN(CCCNC(=O)Nc2ccc3c(c2)N(Cc2ccc(C)cc2)C(=O)CS3)CC1 | · | 8
CN(CC(=O)N1CCCC1)c1nnc(N2CCCC2=O)s1 | -1.8 | 10
N#C/C(C(=O)NCc1ccccc1)=C(/O)CN1C(=O)c2ccccc2C1=O | · | -8
CCOc1ccc(N(CC(=O)NCCSc2ccccn2)S(=O)(=O)c2ccc(SC)cc2)cc1 | -0.5 | ·
Cc1ccnc(NC(=O)C(C)(C)Oc2ccc(Cl)cc2)n1 | -0.1 | 1
COCCNC(=O)c1cc(-c2ccccc2)n[nH]1 | · | -22
Cc1cc(C)c2oc(-c3ccc(NC(=O)COc4ccc(Br)cc4)cc3O)nc2c1 | 0.6 | 0
CC1CCN(C(=O)Cn2ncc3c2-c2ccccc2OC3)CC1 | · | -14
CNC(=O)C(C)n1nc(C)c2sc3ccccc3c2c1=O (configuration not stated) | 0.7 | 9
O=c1c(-c2ccccc2)[n+]([O-])c2ccccc2n1OCc1ccccc1 | 1.9 | 6
CCCCC(=O)Nc1nnn(CCC)n1 | -0.8 | 2
CCCc1c(C(=O)OCC)cnn1-c1ccc([N+](=O)[O-])cc1 | -3.3 | ·
N#CSC(C(=O)c1ccccc1)c1ccccc1 (configuration not stated) | -0.8 | ·
O=C(Nc1ccccn1)C12CCC(CC1)C2 | -1.1 | -5

Next part
SMILES | MgrA-DNA mod | S aureus helic
O=C(CSc1nccn1-c1ccccc1)N1CCc2ccccc21 | · | 9
Cn1nc(-c2ccccc2)cc1NC(=O)c1cccs1 | 1.6 | ·
O=C1C2=C(CCCC2)C(=O)N1CNc1ccccc1 | 0.6 | ·
Cc1ccc(N2CC(C(=O)Nc3ccc(S(=O)(=O)NC4CCCCC4)cc3)CC2=O)cc1 (configuration not stated) | 0.8 | 13
CN(C(=O)Cn1c(=O)n(CCCC(=O)NCc2ccco2)c(=O)c2sccc21)c1ccccc1 | · | 6
Cc1cc(-c2cc(N)n(-c3ccccc3)n2)c(C)n1-c1ccccc1F | · | 9
CC1(C)CC(=O)c2cc(OCC(=O)NCc3ccccc3)ccc2O1 | 0.3 | 5
CCOC(=O)C1CCN(C(=O)c2ccccc2NC(=O)C2=CSCCO2)CC1 | · | 10
CC1Sc2cc(S(=O)(=O)NCCc3ccccc3)ccc2NC1=O (configuration not stated) | 0.4 | -5
CNc1nc(SCC(=O)OC)nc(N2CCOCC2)n1 | 0.0 | -7
COc1ccc(/C(O)=C/c2nc3ccc(C(=O)NCCc4ccccc4)cc3[nH]c2=O)cc1 | 31 | -49
CC(C)CNS(=O)(=O)c1ccc(S(=O)(=O)N2CCCN(Cc3ccccc3)C2)cc1 | -4.6 | 0
COC(=O)c1c(CSc2nnc(-c3ccc(OC(F)F)cc3)o2)nc2ccccc2c1C | · | -5
CC(=O)N1CCc2ccccc2C1CC(=O)O (configuration not stated) | · | 3
COc1ccc(C(=O)COC(=O)c2oc3ccccc3c2C)cc1OC | · | 27
Cc1[nH]c2ccccc2c1C(=O)CN1C(=O)NC(CC(C)C)C1=O (configuration not stated) | · | 4
CC(C)(C)c1csc(=Nc2ccc(F)cc2F)o1 | -0.1 | ·
O=C(OC1OCCOC1OC(=O)c1ccc(F)cc1)c1ccc(F)cc1 (configuration not stated) | · | 6
CC(C)N(Cc1nc2ccccc2c(=O)[nH]1)C(=O)c1cccc(C#N)c1 | · | -14
CC(=O)N1CC(C)Sc2cc(S(=O)(=O)N3CCCCC3)ccc21 (configuration not stated) | 1.5 | -1
O=C(NC1CC1)c1cc2c(s1)CS(=O)(=O)C2 | · | 27
CC(=O)N1CCN(Cc2csc(-c3ccc(F)cc3)n2)CC1 | · | -6
COc1ccccc1C(=O)Nc1ccc2c(C)cc(=O)oc2c1 | · | 2
CSc1n[nH]c(NC2=CC(=O)CCC2)n1 | 0.0 | 7
CC1CCCC(C)N1NC(=O)c1cccc(S(=O)(=O)N2CCc3ccccc32)c1 (configuration not stated) | · | -6
Nc1nc(-c2ccc(Oc3ccccc3)cc2)cs1 | · | -3
O=C(O)c1cccc(N2N=C(C(F)(F)F)/C(=C/c3ccc(-c4ccc5c(c4)C(=O)NC5=O)o3)C2=O)c1 | 7.1 | ·
O=C(NCCCN1CCN(c2ccccc2F)CC1)C1C2C=CC3(CN(Cc4ccccc4Cl)C(=O)C13)O2 (configuration not stated) | · | 4
Cc1ccc(NC(=O)CNC(=O)C23CC4CC(CC(C4)C2)C3)c(O)c1 | · | 14
C=CCN1C(=O)C(O)(c2sc(N3CCOCC3)nc2C)c2ccccc21 (configuration not stated) | · | 4
O=C(Nc1ccccc1OC(F)F)C12CC3CC(CC(O)(C3)C1)C2 | · | 12
c1ccc(-c2cnc3n2CCCCC3)cc1 | -0.4 | -15
Cc1ccc(-n2ncc3c(=O)[nH]c(SCC(=O)Nc4ccc5c(c4)OCO5)nc32)cc1C | · | -20
OCc1ccc(OCc2cccs2)cc1 | -6.2 | 3
CCC(CO)NC(=O)c1ccccc1C(F)(F)F (configuration not stated) | 0.7 | -10
O=C(NCc1cccs1)c1cnn2cc(Br)cnc12 | 2.0 | 9
O=C(c1ccco1)N1CCN(C(=O)c2oc(=O)c3ccccc3c2-c2ccccc2)CC1 | · | 12
CSc1nsc(SC)c1C(=O)NC(=O)N1CCOCC1 | · | 12
Cc1cc2ncn(Cc3nc(-c4cccc(Br)c4)no3)c2cc1C | · | 0
COCn1cnc2ccccc21 | · | 8

Reformatted: entries from further up
canonical_smiles	MgrA-DNA mod	S aureus helic
O=C(NC1CC1)c1cc2c(s1)CS(=O)(=O)C2	·	27
CC(=O)N1CCN(Cc2csc(-c3ccc(F)cc3)n2)CC1	·	-6
COc1ccccc1C(=O)Nc1ccc2c(C)cc(=O)oc2c1	·	2
CSc1n[nH]c(NC2=CC(=O)CCC2)n1	0.0	7
CC1CCCC(C)N1NC(=O)c1cccc(S(=O)(=O)N2CCc3ccccc32)c1 (configuration not stated)	·	-6
Nc1nc(-c2ccc(Oc3ccccc3)cc2)cs1	·	-3
O=C(O)c1cccc(N2N=C(C(F)(F)F)/C(=C/c3ccc(-c4ccc5c(c4)C(=O)NC5=O)o3)C2=O)c1	7.1	·
O=C(NCCCN1CCN(c2ccccc2F)CC1)C1C2C=CC3(CN(Cc4ccccc4Cl)C(=O)C13)O2 (configuration not stated)	·	4
Cc1ccc(NC(=O)CNC(=O)C23CC4CC(CC(C4)C2)C3)c(O)c1	·	14
C=CCN1C(=O)C(O)(c2sc(N3CCOCC3)nc2C)c2ccccc21 (configuration not stated)	·	4
O=C(Nc1ccccc1OC(F)F)C12CC3CC(CC(O)(C3)C1)C2	·	12
c1ccc(-c2cnc3n2CCCCC3)cc1	-0.4	-15
Cc1ccc(-n2ncc3c(=O)[nH]c(SCC(=O)Nc4ccc5c(c4)OCO5)nc32)cc1C	·	-20
OCc1ccc(OCc2cccs2)cc1	-6.2	3
CCC(CO)NC(=O)c1ccccc1C(F)(F)F (configuration not stated)	0.7	-10
O=C(NCc1cccs1)c1cnn2cc(Br)cnc12	2.0	9
O=C(c1ccco1)N1CCN(C(=O)c2oc(=O)c3ccccc3c2-c2ccccc2)CC1	·	12
CSc1nsc(SC)c1C(=O)NC(=O)N1CCOCC1	·	12
Cc1cc2ncn(Cc3nc(-c4cccc(Br)c4)no3)c2cc1C	·	0
COCn1cnc2ccccc21	·	8

Continuation.
SMILES | MgrA-DNA mod | S aureus helic
CCOC(=O)c1c(C)oc2c1C1=NC(CC)CN1C=N2 (configuration not stated) | · | -7
Cc1ccc(NC(=O)C2CC(=O)n3ncnc3N2)cc1C (configuration not stated) | · | -24
CCS(=O)(=O)N1CCC(C(=O)NC2CCCCCC2)CC1 | · | 1
Cc1nc2sccn2c1-c1nc(-c2ccccc2)c(C(=O)c2ccc3c(c2)NC(=O)CO3)s1 | · | -6
CCc1cccc(CC)c1N1C(=O)CC(Sc2ccccc2N)C1=O (configuration not stated) | 1.1 | ·
CC(SCc1ccccc1)C(=O)Nc1ccccc1 (configuration not stated) | 3.6 | 7
CC1(C(=O)O)CCC2C(Br)=CC21C (configuration not stated) | · | -17
CCO/C=C1/C(=O)N(C)C(=O)c2ccccc21 | · | 1
CCN(CC)S(=O)(=O)c1cccc(-c2nn(CN(CCC#N)Cc3cccnc3)c(=S)n2CC(C)C)c1 | · | 7
Cc1ccc2c(NC(=O)C(C)(C)C)cccc2n1 | -1.2 | 15
O=[N+]([O-])c1cc(C(F)(F)F)cc([N+](=O)[O-])c1Sc1ncn[nH]1 | 9.0 | ·
O=c1c2c(-c3ccccc3)csc2nc2n1CCC2 | -2.8 | 6
CCN(Cc1ccc2c(c1)OCCO2)C(=O)c1ccc(-n2cccn2)cc1 | · | -13
COC(=O)C1=C(N)OC2=C(C(=O)CCC2)C1c1ccc(OCc2ccccc2)cc1 (configuration not stated) | · | -1
COC(=O)c1ccc(S(=O)(=O)N2CCC(c3nc4ccccc4s3)CC2)cc1 | -0.4 | 8
CN(C)c1ccc(/C=C2\N=C(c3ccc(Br)o3)OC2=O)cc1 | · | -113
O=C(c1cccc(F)c1)N1CCN(C(=O)C2CC2)CC1 | · | 2
COC(=O)c1ccc(Oc2nc(Nc3cccc(C)c3C)nc(N3CCC(C)CC3)n2)cc1 | 0.0 | 8
Cc1nn(-c2ccccc2)c(N2CCCC2)c1/C=N/OCC(=O)Nc1ccc(F)cc1F | · | -2
Cc1cc(C)c(C#N)c(SCCCCSc2nc(C)cc(C)c2C#N)n1 | 0.0 | -3
CCC(=O)n1c(SC)nc2ccccc21 | -0.9 | -8
CC(=O)OC1CCN(Cc2ccccc2)C(C)C1C (configuration not stated) | · | 0
Cc1nc2ccc(NC(=O)c3ccc([N+](=O)[O-])cc3)cc2s1 | -1.9 | ·
C=C1C(c2ccc(C)cc2)=CCc2cc(C)cc(C)c21 | 2.1 | ·
Cc1cc(C)nc(N/C(=N/S(=O)(=O)c2ccccc2)Nc2ccccc2)n1 | · | 17

The list is partial (hit frequency here may not be typical).
